Source: PubChem BioAssay (Johns Hopkins Ion Channel Center)
KCNQ2 enhance: KCNQ2 (rat) channel potentiation. actives 0.54% (n = 310,000). AID 2239. O88943. B-score at 10 µM. CHO-K1 KCNQ2, FluxOR thallium flux fluorescence; hits give high values;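 active means fluorescence ratio B-score at least 3 SD of library B-scores, with initial fluorescence B-score within 3 SD, cut at about 5.3 in these data; same plate scores as AID 2156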;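 further: B-score of peak minus minimum over baseline fluorescence ratio after K+ and Tl+ stimulus; positive B-score means potentiation of KCNQ2 with more thallium influx and brighter signal; only the inactives scoring about 0 or higher are listed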
Target sequence (O88943 whole entry, looked up): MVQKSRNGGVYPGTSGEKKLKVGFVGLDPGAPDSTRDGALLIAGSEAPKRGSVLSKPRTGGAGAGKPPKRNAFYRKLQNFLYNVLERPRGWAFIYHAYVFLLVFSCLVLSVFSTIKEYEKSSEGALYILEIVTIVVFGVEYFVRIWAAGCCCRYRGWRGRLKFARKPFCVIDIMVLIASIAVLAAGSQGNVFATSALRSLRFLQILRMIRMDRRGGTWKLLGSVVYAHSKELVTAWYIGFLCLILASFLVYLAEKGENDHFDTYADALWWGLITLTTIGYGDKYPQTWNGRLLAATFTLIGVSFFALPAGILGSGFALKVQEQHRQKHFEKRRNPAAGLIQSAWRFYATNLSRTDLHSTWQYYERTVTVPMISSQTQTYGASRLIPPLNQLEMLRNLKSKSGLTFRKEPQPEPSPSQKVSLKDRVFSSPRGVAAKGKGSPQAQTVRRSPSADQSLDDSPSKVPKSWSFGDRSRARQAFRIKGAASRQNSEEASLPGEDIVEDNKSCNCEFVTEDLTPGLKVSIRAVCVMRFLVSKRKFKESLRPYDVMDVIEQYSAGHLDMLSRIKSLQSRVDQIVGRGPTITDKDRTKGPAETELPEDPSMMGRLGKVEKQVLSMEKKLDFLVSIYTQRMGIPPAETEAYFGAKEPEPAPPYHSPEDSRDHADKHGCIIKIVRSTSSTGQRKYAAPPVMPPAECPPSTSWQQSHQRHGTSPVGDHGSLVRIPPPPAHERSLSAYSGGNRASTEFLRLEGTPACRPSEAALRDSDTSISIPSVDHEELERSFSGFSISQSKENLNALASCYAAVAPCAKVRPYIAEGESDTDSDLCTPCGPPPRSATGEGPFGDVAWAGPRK
KCNQ2 enhance baseline: recorded beside KCNQ2 enhance, whose call it bears; B-score; compound at 10 µM; measured here: initial fluorescence intensity artifact check;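 brightness before thallium and not channel activity; 0 = typical well and far values either way flag optical interference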
An asterisk follows results filed as active. An excerpt. The share of hits here may be higher or lower than overall.

Results follow in this order: KCNQ2 enhance	KCNQ2 enhance baseline
O=C(COc1ccccc1)Nc1nonc1NC(=O)COc1ccccc1
  0.28	0.61
O=C(c1ccc(N2CCC3(CC2)OCCO3)c([N+](=O)[O-])c1)N1CCOCC1
  1.5	0.67
CC1(C)CC(=O)c2cnc(N3CCc4ccccc4C3)nc2C1
  1.2	-2.5
Cc1cn2c(nc1=O)OC1CC2OC1CO (stereo not given)
  0.11	1.8
CCC(=O)Nc1ccc(NC(=O)c2ccccc2)nc1
  1.3	0.96
O=C(Nc1sc2c(c1C(=O)O)CCCC2)c1ccccc1Cl
  1.3	1
O=C(NC(=S)Nc1ccc(S(=O)(=O)Nc2nccs2)cc1)c1cccc(F)c1
  0.68	-0.98
CN(C(=O)NC1CC(=O)N(c2ccc3c(c2)OCCO3)C1)c1ccccc1 (stereo not given)
  1.5	0.33
O=C(NNc1cccc([N+](=O)[O-])c1)/C(=C\c1cccnc1)NC(=O)c1ccccc1
  0.64	-2.8
O=C(Nc1cccc(O)c1)C1CC(c2ccc(Cl)cc2)=NO1 (stereo not given)
  0.55	-0.72
CCn1cc(C(=O)O)c(=O)c2cc(F)c(N3CCN(C(=S)NC(=O)c4ccccc4Cl)CC3)cc21
  0.16	1.4
CCN(CCO)c1ncnc2c1sc1nc(C(C)C)c3c(c12)CC(C)(C)OC3
  0.18	-0.66
CS(=O)(=O)N1CCCC(C(=O)NCc2cccs2)C1 (stereo not given)
  0.32	-0.64
CCC(C)C(=O)Nc1nccs1 (stereo not given)
  0.59	-2.6
COc1ccc(CN2CNc3nc4ccccc4n3C2)cc1
  0.89	-0.14
COc1ccc2oc(C(=O)OCC(=O)Nc3ccccc3OC)c(C)c2c1
  0.71	-0.77
CC(C)Oc1ccc(C(CC(=O)O)NC(=O)Cc2ccccc2)cc1 (stereo not given)
  0.07	-0.01
CCOc1c(OC(C)=O)ccc(/C=C/c2ccc3cccc(OC(C)=O)c3n2)c1[N+](=O)[O-]
  0.84	-2.8
O=C1CCC(C(=O)N2CCCCO2)CN1Cc1cccc(C(F)(F)F)c1 (stereo not given)
  0.01	-0.38
CCCc1nnc(NC(=O)c2nc(S(=O)(=O)Cc3ccc(C)cc3)ncc2Cl)s1
  10*	2.7*
Cc1ccc(C(=O)OCC(=O)Nc2sc3c(c2C#N)CCCCC3)cc1NC(=O)c1ccco1
  2.5	0.18
COc1ccc(NC(=O)CN2C(=O)COc3ccc(S(=O)(=O)N4CCCCC4)cc32)cc1OC
  0.94	-1.7
c1ccc(OCc2nnc3n2CCCCC3)cc1
  0.02	-0.57
Cc1nc2c(C)cccn2c(=O)c1NC(=O)c1ccc2c(c1)OCO2
  0.25	0.62
CCCCC(=O)Nc1ccccc1C(C)C
  0.77	0.05
COc1ccc(-c2[nH]ncc2CN2CCC(OCc3ccccc3)CC2)c(F)c1
  1.6	1.1
Nc1c(-c2ccccc2)cnn1-c1ccc(C(=O)O)cc1
  1.3	-1
COC(=O)c1c(NC(=O)c2ccco2)sc(C(=O)N(C)C)c1C
  0.62	-2
Cc1cc(C)c(N(C(=O)c2csnn2)C(C(=O)NC2CCCC2)c2ccncc2)c(C)c1 (stereo not given)
  0.11	-0.05
COc1cccc(/C=N/NC(=O)CCC(=O)Nc2ccc(Br)cc2)c1
  0.54	-0.89

Retrieved by structure from the entries so far (seven):
Results follow in this order: KCNQ2 enhance	KCNQ2 enhance baseline
Cc1nc2c(C)cccn2c(=O)c1NC(=O)c1ccc2c(c1)OCO2
  0.25	0.62
Cc1cc(C)c(N(C(=O)c2csnn2)C(C(=O)NC2CCCC2)c2ccncc2)c(C)c1 (stereo not given)
  0.11	-0.05
COc1ccc(NC(=O)CN2C(=O)COc3ccc(S(=O)(=O)N4CCCCC4)cc32)cc1OC
  0.94	-1.7
COc1cccc(/C=N/NC(=O)CCC(=O)Nc2ccc(Br)cc2)c1
  0.54	-0.89
COC(=O)c1c(NC(=O)c2ccco2)sc(C(=O)N(C)C)c1C
  0.62	-2
COc1ccc(-c2[nH]ncc2CN2CCC(OCc3ccccc3)CC2)c(F)c1
  1.6	1.1
CCCCC(=O)Nc1ccccc1C(C)C
  0.77	0.05

Additional records.
Results follow in this order: KCNQ2 enhance	KCNQ2 enhance baseline
NS(=O)(=O)c1ccc(CCNS(=O)(=O)Cc2ccc(Cl)cc2)cc1
  0.15	0.78
O=C1NC2(CCSC2)C(=O)N1CC(=O)N(Cc1ccccc1)C1CCS(=O)(=O)C1 (stereo not given)
  1.8	0.09
COc1ccc(C(=O)Nc2cccc(C(=O)NCc3ccco3)c2)cc1
  3.5	3.3
Cc1nc(NC(=O)c2ccccc2)nc2cc3c(cc12)OCO3
  1.8	-0.5
COc1ccccc1OCC(=O)Nc1cc(NC(=O)COc2ccccc2OC)cc(C(=O)O)c1
  0.81	-0.79
COCCNC(=O)c1cn(C)c2ccc(S(=O)(=O)N3CCCCC3)cc2c1=O
  1.3	-0.32
COC(=O)c1ccc(COc2ccccc2OC)o1
  0.51	-1.2
Cc1ccc(-c2cc(=O)[nH][nH]2)c(C)c1
  0.01	-0.01
COc1cc(CN2CCCC(N3CCN(c4ccccc4C)CC3)C2)ccc1O (stereo not given)
  0.81	2
CC(C)c1ccc(NC(=O)c2cc3c(=O)n(C)c4ccccc4c3n2C)cc1
  0.56	-0.84
COc1ccc(/C=C/C(=O)N2CCC(C(N)=O)CC2)cc1S(=O)(=O)N1CCOCC1
  0.48	-2.2
NCCNc1cc(N2CCCC2)ccc1[N+](=O)[O-]
  1	0.95
Cc1ccc(NC(=O)Cc2nnc(SCC(=O)NC3CCCC3)n2C)cc1C
  0.4	0.07
O=C(Nc1cc([N+](=O)[O-])ccc1F)C1CC1
  1.9	-0.32
Cc1cccc(NC(=O)c2nc(S(=O)(=O)Cc3ccccc3)ncc2Cl)c1
  6.4*	-1.9*
COc1ccc(OCC(=O)NNC(=S)NC(=O)C2CC2)cc1
  1.3	1.2
Cc1cccc(NS(=O)(=O)c2ccc(-c3ccc(=O)[nH]n3)o2)c1
  0.97	0.16
NNC(=O)C1CC1c1ccc(Cl)cc1 (stereo not given)
  1.1	0.97
Cc1cc(C)c(OCC(=O)NCC(C)(C)N2CCOCC2)c(C)c1
  0.75	-1.7
CCCC1=NN(C(=O)Cc2ccc(OC)cc2)C(O)(C(F)(F)F)C1 (stereo not given)
  0.83	1.8
O=C(c1ccccc1NS(=O)(=O)c1ccccc1)N1CCCCCC1
  0.94	2.3
Cc1cccc(C)c1NC(=O)C1(N(Cc2ccco2)C(=O)c2ccccn2)CCCC1
  0.03	1.4
CCOC(=O)N1CCN(C(=O)C2CCN(C(=O)c3cc(OC)cc(OC)c3)CC2)CC1
  0.92	-2.8
O=C(COC(=O)CNC(=O)C1CCCCC1)Nc1ccc(Cl)cn1
  0.09	-0.45
CCCCn1c(-c2cccnc2)n[nH]c1=S
  0.03	-1.6
CCOC(=O)N1CCC(NC(=O)CCS(=O)(=O)c2ccc3c(c2)CCN3C(C)=O)CC1
  0.06	-1.6
CC1=C(C(=O)N(C)C)C(c2ccc(C)s2)NC(=S)N1 (stereo not given)
  0.09	0.27
CC1(C)CC(NNCCC#N)=CC(=[N+]2CCCC2)C1
  1.4	-1
Cn1c(=O)c2c(ncn2CC(=O)OCC(=O)Nc2sccc2C(N)=O)n(C)c1=O
  1.2	-0.95
Cc1cccc(N2C(=O)N3[C@H](c4ccc(Br)cc4)[C@@H]4C(=O)N(C(C)(C)C)C(=O)[C@@H]4[C@]3(Cc3ccc(Cl)cc3)C2=O)c1
  0.47	-0.62
CCOC(=O)C1CCN(c2c(N(C)Cc3ccco3)c(=O)c2=O)CC1
  0.83	-0.1
COC(=O)C1CCN(C(=O)N2CCOCC2)CC1
  0.92	-1.6
Cc1csc(NC(=O)c2ccc(S(=O)(=O)N(C)c3ccccc3)cc2)n1
  1.9	-0.59
COc1ccccc1-c1nc2ccc(Cl)cc2c(=O)n1O
  1.7	-0.56
COc1ccc(C(=O)COC(=O)C2CCN(S(=O)(=O)c3cccc4cccnc34)CC2)cc1
  0.73	-1.3
COC(=O)CSc1nnc(CNC(=O)c2ccc(S(=O)(=O)N(C)C)cc2)n1C
  0.54	-1.4
COC(=O)c1sc(NC(=O)c2c(-c3ccccc3)noc2C)nc1C
  0.55	1.2
O=C(CN1CCOCC1)n1c2ccccc2c2ccccc21
  0.89	-1.1
COc1ccc2c(c1)OC(c1ccccc1)(C(F)(F)F)NC2=O (stereo not given)
  2.5	-1.6
CCCCNC(=O)NS(=O)(=O)c1cnccc1Sc1ccc(Cl)cc1
  0.68	0.04
CN(C)C(=O)c1cn(-c2ccccc2)c(=O)c2ccccc12
  0.67	0.08
Nc1cc(Oc2cccnc2)cc([N+](=O)[O-])c1
  1	-2.3
Cc1sc2ncn(CC(=O)N3CCN(c4ccccc4F)CC3)c(=O)c2c1S(=O)(=O)N1CCOCC1
  0.34	-0.37
CC1CCCC(C)N1c1ccc(S(=O)(=O)N2CCOCC2)cc1Cl (stereo not given)
  0.07	-0.55
Cc1cc(OC(=O)c2ccc(C(F)(F)F)cc2)c([N+](=O)[O-])c(=O)[nH]1
  2	1.1
COc1ccc(C)cc1NC(=O)c1cc2ccccc2o1
  0.17	0
COc1cc(OC)cc(C(=O)Nc2ncc3c(n2)CC(C)CC3=O)c1 (stereo not given)
  0.05	0.67
Cc1cc(NC(=O)c2cccc(Br)c2)n[nH]1
  0.59	-0.75
COc1ccc(C(=O)NC2CC2)cc1OC1CCN(Cc2ccc(F)cc2Cl)CC1
  0.35	-0.55
NC(=O)COC(=O)/C=C/c1ccccc1[N+](=O)[O-]
  2.2	-0.31

(cont.)
Results follow in this order: KCNQ2 enhance	KCNQ2 enhance baseline
CC(C)(C)c1ccc(S(=O)(=O)Nc2ccccn2)cc1
  0.25	0.07
C=CCN1C(=O)C2(/C(=C(\O)c3ccc4c(c3)OCCO4)C(=O)C(=O)N2CCCOC)c2ccccc21 (stereo not given)
  0.91	-0.63
COc1cc(OC)c(CN2CCC(CO)(CCOc3ccccc3)CC2)c(OC)c1
  0.44	0.72
O=C(OCC(=O)N1CCCC1=O)c1cccc(S(=O)(=O)N2CCOCC2)c1
  0.9	0.43
COc1cccc(C2CCCN2Cc2nc(CC3CC3)no2)c1 (stereo not given)
  0.44	-0.66
O=C(NCc1cccnc1)c1nc(-c2ccc(C(F)(F)F)cc2)no1
  2.5	-0.34
COc1ccc(C(NC(=O)/C=C/c2ccco2)c2ccc(OC)c(OC)c2)cc1 (stereo not given)
  0.13	-1.2
COC(=O)c1c(C(=O)OC)c(-c2cccc(C)c2)n2c1CS(=O)C2 (stereo not given)
  0.66	-0.07
O=C(CCCCCNC(=O)c1ccccc1)C[N+](=O)[O-]
  0.01	-0.85
O=S1(=O)N=C(Nc2ccc(N3CCOCC3)c(Cl)c2)c2ccccc21
  0.55	0.01
CCCCc1ccc(NC(=O)COc2ccc(C(=O)Nc3ccccc3OC)cc2)cc1
  0.32	0.31
Cc1ccc(C)c(NC(=O)COC(=O)CCc2ccc(S(=O)(=O)N3CCOCC3)cc2)c1
  0.16	-1.1
Nn1nnc2ccccc21
  0.42	-0.78
CC(NC(=O)Nc1ccc(F)cc1F)c1ccc2c(c1)OCO2 (stereo not given)
  2.1	0.48
Cc1ccc(NC(=O)COC(=O)CCC(=O)c2ccc(Cl)cc2)cc1S(=O)(=O)N(C)C
  0.03	-1.4
CCN(C(=O)c1cnc(OC)cc1C(F)(F)F)c1ccc(Cl)cc1
  0.47	0.44
O=C(OC(C(=O)NCc1ccco1)C(OC(=O)c1ccccc1)C(=O)NCc1ccco1)c1ccccc1 (stereo not given)
  1.3	1.3
Cc1ccccc1NC(=O)N1CCc2ccccc2C1
  0.51	-0.35
Cc1cc(C)nc(N/C(=N\S(=O)(=O)Cc2ccccc2)Nc2ccc(F)c(Cl)c2)n1
  0.26	-0.21
CC(=O)c1ccccc1NS(C)(=O)=O
  2.1	-1.1
O=C(c1ccc(S(=O)(=O)N2CCCCC2)cc1)N1CCN(CCN2C(=O)c3cccc4cccc(c34)C2=O)CC1
  1.3	0.48
O=C(O)c1ccc(COc2ccc(/C=N/NC(=O)c3cccs3)cc2)cc1
  0.8	1.2
C#CCNC(=O)C1=C[C@@H](c2ccc(C(F)(F)F)cc2)[C@H](CCCO)[C@@H](OCC)O1
  0.51	-1.3
O=[N+]([O-])c1ccc(NCCCN2CCOCC2)c([N+](=O)[O-])c1
  0.95	-0.95
CN1C(=O)[C@@H]2C[C@@]3([C@@]45C[C@H]6C(=O)N(C)[C@@H](Cc7ccccc7)C(=O)N6[C@@H]4Nc4ccccc45)c4ccccc4N[C@H]3N2C(=O)[C@@H]1Cc1ccccc1
  0.1	3.2
CCN(CC)CCNC(=O)Cn1ncc2ccccc2c1=O
  1.8	-0.79
O=C(c1cccn2c(=O)c3cc(Cl)ccc3nc12)N1CCOCC1
  0.1	2.1
Cc1ccc(C(=O)N2CCC(C(N)=O)CC2)cc1C
  1.4	-0.15
CCOc1cc(/C=N\NC(=O)Cn2nc([N+](=O)[O-])cc2C)ccc1OCc1cccc2ccccc12
  1.4	0.65
COc1ccc(S(=O)(=O)N(CCCN2CCCC2=O)Cc2cc3cc(C)c(C)cc3[nH]c2=O)cc1
  0.54	-0.19
O=C(NCc1ccco1)c1nn(-c2ccccc2)c(=O)c2ccccc12
  0.47	-1.9
COC(=O)CSc1nccc(-c2cccs2)n1
  0.63	0.24
O=c1c(Cl)c(N/N=C/c2ccc(Cl)cc2)cnn1-c1ccccc1
  0.16	1.1
CCCc1ccc(OCC(=O)O)cc1
  0.02	0.87
CC(C)(C)c1ccc(-n2ncc3c2CCCC3NC(=O)CCn2cncn2)cc1 (stereo not given)
  0.71	-1.3
